Screening results (PubChem)
KCNQ2 enhance – KCNQ2 (rat) channel potentiation. B-score at 10 µM. CHO-K1 KCNQ2, FluxOR thallium flux fluorescence; hits give high values. 310,000 compounds, 0.54% hits. O88943. AID 2239;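 active = fluorescence ratio B-score at least 3 SD of library B-scores, with initial fluorescence B-score within 3 SD, cut at about 5.3 in these data; same plate scores as AID 2156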;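 note: B-score of peak minus minimum over baseline fluorescence ratio after K+ and Tl+ stimulus; positive B-score means potentiation of KCNQ2 with more thallium influx and brighter signal; only the inactives scoring about 0 or higher are listed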
Target sequence (O88943 whole entry, looked up): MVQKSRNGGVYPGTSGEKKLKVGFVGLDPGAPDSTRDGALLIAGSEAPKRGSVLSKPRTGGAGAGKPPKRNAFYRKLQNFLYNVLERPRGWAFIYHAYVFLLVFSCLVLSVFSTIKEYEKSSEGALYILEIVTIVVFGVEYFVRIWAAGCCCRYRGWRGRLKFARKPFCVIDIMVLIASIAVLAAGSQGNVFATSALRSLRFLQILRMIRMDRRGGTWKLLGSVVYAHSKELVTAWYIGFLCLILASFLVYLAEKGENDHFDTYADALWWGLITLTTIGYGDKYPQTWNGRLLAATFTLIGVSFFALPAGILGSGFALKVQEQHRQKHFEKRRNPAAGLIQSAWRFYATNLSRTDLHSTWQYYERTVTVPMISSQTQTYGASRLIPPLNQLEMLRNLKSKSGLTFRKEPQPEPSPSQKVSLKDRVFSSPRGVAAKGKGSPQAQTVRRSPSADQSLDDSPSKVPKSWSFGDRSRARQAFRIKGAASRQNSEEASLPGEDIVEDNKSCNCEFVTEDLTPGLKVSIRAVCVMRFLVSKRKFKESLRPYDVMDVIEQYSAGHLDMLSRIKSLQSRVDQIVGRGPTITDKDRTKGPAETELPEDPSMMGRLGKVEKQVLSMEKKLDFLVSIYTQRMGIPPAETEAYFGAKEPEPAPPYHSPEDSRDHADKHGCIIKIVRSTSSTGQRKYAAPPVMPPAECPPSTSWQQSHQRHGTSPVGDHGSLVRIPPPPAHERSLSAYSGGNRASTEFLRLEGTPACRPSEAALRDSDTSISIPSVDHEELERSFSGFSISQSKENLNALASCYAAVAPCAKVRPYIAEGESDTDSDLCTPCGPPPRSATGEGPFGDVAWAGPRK
KCNQ2 enhance baseline – recorded beside KCNQ2 enhance, whose call it bears; B-score; compound at 10 µM; measured here: initial fluorescence intensity artifact check;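 brightness before thallium and not channel activity; 0 = typical well and far values either way flag optical interference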
Active calls of the source: *.

KCNQ2 enhance	KCNQ2 enhance baseline	structure
1.7	-0.39	CCOC(=O)C1=C(COC(=O)C2CC(=O)N(c3ccc(C)cc3)C2)NC(=O)NC1C (stereo not drawn)
1.8	-0.04	Cc1ccc(S(=O)(=O)NC2=NCN(CCN3CCOCC3)CN2)cc1
2	0.14	CCOc1cccc(/C=N/NC(=O)c2cc(C3CC3)[nH]n2)c1O
0.5	-1.2	COc1cccc(CN(C(=O)c2ccco2)C(C(=O)NC2CCCC2)c2cccnc2)c1 (stereo not drawn)
0.11	-0.38	NC(=O)C1CCN(C(=O)c2ccc3c(c2)S(=O)(=O)c2ccccc2C3=O)CC1
0.32	0.22	CCC[C@H]1COCCS(=O)(=O)N1Cc1ccccc1
1.3	-0.2	Cc1nn(C(=O)c2ccco2)c(C)c1Br
2.4	-1.7	CCCC(=O)Nc1nn(C)c2nc3cc(C)ccc3cc12
0.41	2.4	O=c1c(N2CCOCC2)nsnc1N1CCOCC1
0.85	0.93	CC(=O)NCCC(=O)N(C)CC1CCN(CCc2cccc(C(F)(F)F)c2)CC1
0.01	-1	CSc1ccccc1NC(=O)c1cc(-c2cccs2)on1
2	0.21	Cc1noc(C)c1S(=O)(=O)N1CCC(C(=O)NCCN2CCC(C)CC2)CC1
2.1	-2.7	COCc1cc(C)c2c(N)c(C#N)sc2n1
0.05	0.72	Cc1ccc(OCCOCCN2CCN(C)CC2)c(C(C)(C)C)c1
0.85	0.01	CS(=O)(=O)N(CC(=O)NCCSCc1ccccc1)c1ccccc1F
0.49	-0.04	O=C(CCSCCC(=O)NCc1ccccc1)NCc1ccccc1
0.01	0.64	CSc1ccc(CNc2ccc(C)c(C)c2)cc1
0.68	-0.6	CN=c1scc(-c2ccc(Br)cc2)n1C
1.7	0.72	Cc1ccc(C)c(N(C(=O)c2csnn2)C(C(=O)NC2CCCC2)c2cccnc2)c1 (stereo not drawn)
0.12	0.77	COc1ccc(N2C(=O)CSC23C(=O)Nc2ccccc23)cc1OC (stereo not drawn)
0.3	1.3	Cc1cc(C)c(N=C2C(=O)Nc3ccccc32)c(C)c1
0.46	-0.46	CCC(C)[C@H](N)c1nnc(SCC(=O)c2ccc(Cl)cc2)o1 (stereo partly drawn)
0.19	-0.14	Cc1ccc(NC(=O)CCc2nnc3ccc(NCc4ccco4)nn23)cc1
0.92	-0.21	COc1cccc(NC(=S)N(CCc2ccc(OC)c(OC)c2)Cc2ccccn2)c1
0.13	-0.62	COc1ccc(N2CCN(Cc3cc(=O)oc4cc(C)c(Cl)c(C)c34)CC2)cc1

Quoted at random: four entries already listed.
KCNQ2 enhance	KCNQ2 enhance baseline	structure
0.12	0.77	COc1ccc(N2C(=O)CSC23C(=O)Nc2ccccc23)cc1OC (stereo not drawn)
0.85	0.93	CC(=O)NCCC(=O)N(C)CC1CCN(CCc2cccc(C(F)(F)F)c2)CC1
0.11	-0.38	NC(=O)C1CCN(C(=O)c2ccc3c(c2)S(=O)(=O)c2ccccc2C3=O)CC1
2.1	-2.7	COCc1cc(C)c2c(N)c(C#N)sc2n1

Single records (already shown). Screens in order: KCNQ2 enhance	KCNQ2 enhance baseline
Cc1ccc(NC(=O)CCc2nnc3ccc(NCc4ccco4)nn23)cc1 across the screens: 0.19	-0.14
CSc1ccccc1NC(=O)c1cc(-c2cccs2)on1 across the screens: 0.01	-1

(next part)
KCNQ2 enhance	KCNQ2 enhance baseline	structure
0.64	-2.3	O=C(NCc1nc2ccccc2[nH]1)C1=C[C@H](c2ccc3c(c2)OCO3)C[C@H](OCCCCO)O1
0.86	-0.02	FC(F)(F)c1ccc(Oc2ccc3cc(Br)ccc3c2)nc1
1.1	-0.02	O=C(c1ccc(Br)cc1)N1CCN(c2ncccn2)CC1
1.6	-1.3	COc1ccc(C(=O)NC2CCN(C(=O)NC3CCCCC3)CC2)cc1
0.05	1.9	O=C(NCc1n[nH]c(=S)n1-c1ccc([N+](=O)[O-])cc1)c1ccc(S(=O)(=O)N2CCOCC2)cc1
2.2	-1.9	COCCNC(=O)CSc1nnc(-c2ccc(C)cc2)c(-c2ccc(C)cc2)n1
1.2	-0.63	O=c1nc(-c2ccccc2)n(-c2ccccc2)[nH]1
0.11	-0.76	COc1ccccc1/C=C/C(=O)NC(=S)N1CCOCC1
1	-0.06	CCN(CC(=O)Nc1ccc(NC(C)=O)cc1)C(=O)C1COc2ccccc2O1 (stereo not drawn)
1.7	-0.19	CSc1cccc(NC(=S)N(CCN(C)C)C(C)c2ccccn2)c1 (stereo not drawn)
0.12	2.2	CCn1c(C)cc(C)c(C#N)c1=O
0.04	0.58	COc1ccccc1NC(=S)c1ccccc1
0.69	-1.8	Cc1cc(C)n(CC(=O)NNC(=O)CCCOc2ccc(Cl)cc2C)n1
0.28	1	CCn1ccnc1CN(C)Cc1c(C(=O)N2C[C@@H](C)O[C@@H](C)C2)nc2ccc(Cl)cn12
1.3	0.03	O=C(CN1CCN(S(=O)(=O)c2ccccc2)CC1)Nc1ccc(N2CCOCC2)cc1
0.15	-0.07	O=C(c1cc2ccccc2o1)n1nnc2ccccc21
2.3	0.55	CNC(=O)Nc1cccc(-c2cc(-c3c(Cl)cccc3Cl)no2)c1
1.7	-2.1	O=C(CCc1ccc(O)cc1)NNC(=S)NCCc1ccccc1
1.1	0.82	CNc1ccc(C(=O)N2CCN(S(=O)(=O)c3ccc4c(c3)OCCCO4)CC2)cc1[N+](=O)[O-]
0.86	-1.4	Cc1cc(C)nc(-n2nc(C)cc2NC(=O)C(C)C)n1
0.85	-2.2	O=C(NN1C(=O)C2C3C=CC(C3)C2C1=O)c1ccccc1 (stereo not drawn)
0.02	0.77	CCN1C(=O)[C@H]2[C@@H](c3ccc(OC)cc3)N3C(=O)CN(CCOC)C(=O)[C@@]3(Cc3ccccc3)[C@H]2C1=O
0.04	0.25	CCn1c(-c2cccn(Cc3ccccc3)c2=O)n[nH]c1=S
2.7	-0.27	O=C(OCC(=O)N1CCN(c2ccccc2)CC1)c1ccc(Cl)nc1
1.4	-0.41	COc1cc(OC)cc(-c2nnc(SCC(=O)Nc3cccc(C(=O)O)c3)s2)c1
0.73	1.6	NS(=O)(=O)c1ccc(CCNC(=O)NC23CC4CC(CC(C4)C2)C3)cc1
0.24	-0.57	CCn1c2ccc(C)cc2c2n[nH]c(=S)nc21
0.4	-0.24	Cc1ccc(-n2nc(C)c(NC(=O)CCl)c2C)cc1C
1.5	-0.77	CCCN(CCC)C(=O)Cn1c(=O)n(CCCCCC(=O)Nc2ccccc2)c(=O)c2sccc21
1.4	1.4	Cc1nc2ccc(NC(=O)N(C)c3ccccc3)cc2s1
0.83	0.79	CC1=C(C(=O)OCc2ccccc2)C(c2ccc(Cl)cc2)NC(=O)N1CCCC(=O)O (stereo not drawn)
0.44	-1	CN(C)c1ccc(/C=N/NC(=O)c2ccc3nc[nH]c3c2)cc1
0.33	-0.99	COc1ccc(S(=O)(=O)NCC2CCCN(Cc3ccc(OC)cc3F)C2)cc1 (stereo not drawn)
1.4	1.1	CCC(C)NC(=S)Nc1ccc(C(=O)OC)cc1 (stereo not drawn)
0.3	-0.91	CC(C)Cc1cc(C(=O)O)n[nH]1
1.5	0	O=C(Cc1ccc(S(=O)(=O)N2CCOCC2)s1)Nc1ccc2c(c1)CCC2
0.48	0	Cc1c(C(=O)O)sc2nc(CSc3nnc(-c4ccc(F)cc4)n3C)[nH]c(=O)c12
1.1	1.1	COc1ccc2[nH]c(=O)c(CN(Cc3cccnc3)S(=O)(=O)c3ccccc3F)cc2c1
0.65	-0.01	O=c1cc(/C=C/c2cccs2)[nH]c2ccccc12
0.04	2.3	O=C1CC(c2ccco2)Cc2nc(NCC3CCCO3)ncc21 (stereo not drawn)
1.1	-1.2	CCC1=NC(c2ccc(OC)c(OC)c2)N(O)C1(C)C (stereo not drawn)
0.07	0.1	Cc1cc(C)nc(N2CCCC(C(=O)NCc3ccccc3)C2)n1 (stereo not drawn)
0.94	1	CCCNC(=S)NCc1ccc(Cl)cc1
0.18	-0.29	COC(=O)c1sc(OC)cc1OCc1ccc(C)cc1
1.1	1	COc1cccc(OCc2nc3c4cnn(-c5ccccc5)c4ncn3n2)c1
0.46	0.87	CCc1ccc(N(CC(=O)Nc2ccccc2C(=O)N2CCOCC2)S(C)(=O)=O)cc1
0.66	-1.5	CC(=O)c1ccc(NC(=O)c2cccs2)cc1
2.1	1.3	CCN1CCN(C(=O)c2cc3cc(Cl)ccc3[nH]2)CC1
0.91	-0.77	COc1ccc2c(c1)CCc1c(C(=O)NCCN3CCOCC3)noc1-2
0.33	-0.54	COc1ccc(S(=O)(=O)Nc2cc3c(C(C)=O)c(C)oc3c3ccccc23)cc1

(continued)
KCNQ2 enhance	KCNQ2 enhance baseline	structure
0.93	0.4	CC(C)c1nnc(NC(=O)C2CCCO2)s1 (stereo not drawn)
0.51	-1.2	NS(=O)(=O)c1ccc(NC(=S)N2CCN(Cc3ccc4c(c3)OCO4)CC2)cc1
0.21	0.22	Cc1ccc(CN2CCC(NC(=O)c3ccccc3)CC2)cc1
1.1	0.32	CC(=O)c1c(C)[nH]c(C(=O)OCc2cccc(Cl)c2)c1C
0.08	0.3	Cc1cc(O)c(N)c(C)c1Cl
0.45	3.6	COc1c(O)cccc1[C@@H](O)C1CCN(CCc2ccc(F)cc2)CC1
0.01	-1.4	COC(=O)c1ccc(Cn2cc([N+](=O)[O-])cn2)cc1
1.1	-0.8	CC1CCCN(CCCNC(=O)C2CCC(CNS(=O)(=O)c3cccc4nsnc34)CC2)C1 (stereo not drawn)
0.89	0.05	C=CCn1c(=O)c2ccccc2n2c(=S)[nH]nc12
0.67	0.3	Cc1cc(N)c(NC2=CC(=O)CC(C)(C)C2)cc1C
1.4	1	Cc1ccc(N(C)C(=O)c2ccc(CNc3c(N4CCC(C)CC4)c(=O)c3=O)cc2)cc1
0.11	0.55	O=C(CCN1C(=O)/C(=C\c2ccc(F)cc2)SC1=S)Nc1ccccc1
0.28	-1.7	COc1ccc(-c2nc(N)n(C(=O)c3cccs3)n2)cc1
1.7	-0.09	COc1ccc(-n2c(SC)nnc2-c2c[nH]c3ccccc23)cc1
0.94	0.02	O=S(=O)(c1ccc(Br)cc1)N1CCCC1c1nc2ccccc2s1 (stereo not drawn)
0.14	0.76	CN(CC(=O)Nc1ccc(F)cc1)C(=O)CCc1ccccc1
1.5	-2.8	Fc1ccc(CSc2nnc(-c3ccncc3)o2)cc1
0.06	-0.27	CN1CCCN(S(=O)(=O)c2ccc(Cl)c(Cl)c2)CC1
0.46	1	COC(=O)C1CN(C(=O)COc2ccccc2)c2ccccc2O1 (stereo not drawn)
2.5	-0.02	CCN(CCCNC(=O)CN1C(=O)COc2ccc(S(=O)(=O)N3CCC(C)CC3)cc21)Cc1ccccc1
0.02	0.45	NC(=O)CC(NC(=O)Cc1ccc(Br)cc1)c1ccc(N2CCCCCCC2)c([N+](=O)[O-])c1 (stereo not drawn)
1.3	2.5	COc1ccc(CC(=O)Nc2ccc(-c3cn4ccc(C)cc4n3)cc2)cc1
1.2	1.2	COc1ccc(/C(O)=C2/C(=O)C(=O)N(CCCN(C)C)C2c2ccc(C)o2)cc1Cl (stereo not drawn)
0.36	-0.01	O=P(Cc1cc[n+]([O-])cc1)(c1ccccc1)c1ccccc1
0.58	-0.72	Cc1ccc(-n2ncc3c(Nc4cccc(C(=O)O)c4)ncnc32)cc1

Sorted by the number under KCNQ2 enhance (high to low): some entries from above
Compound | KCNQ2 enhance | KCNQ2 enhance baseline
COc1ccc(/C(O)=C2/C(=O)C(=O)N(CCCN(C)C)C2c2ccc(C)o2)cc1Cl (stereo not drawn) | 1.2 | 1.2
CC1CCCN(CCCNC(=O)C2CCC(CNS(=O)(=O)c3cccc4nsnc34)CC2)C1 (stereo not drawn) | 1.1 | -0.8
NS(=O)(=O)c1ccc(NC(=S)N2CCN(Cc3ccc4c(c3)OCO4)CC2)cc1 | 0.51 | -1.2
COC(=O)C1CN(C(=O)COc2ccccc2)c2ccccc2O1 (stereo not drawn) | 0.46 | 1
COc1c(O)cccc1[C@@H](O)C1CCN(CCc2ccc(F)cc2)CC1 | 0.45 | 3.6
CN(CC(=O)Nc1ccc(F)cc1)C(=O)CCc1ccccc1 | 0.14 | 0.76

Next structures follow.
KCNQ2 enhance	KCNQ2 enhance baseline	structure
0.54	-1.6	O=C(CN(c1ccc(F)cc1)S(=O)(=O)c1ccccc1)NC1CC2CCC1C2 (stereo not drawn)
1.1	-1.3	O=C(Nc1ccccc1O)c1cccc(S(=O)(=O)Nc2ccccc2O)c1
0.95	1.7	COc1ccc(Cl)cc1NS(=O)(=O)c1cn(C)nc1C
0.75	0.23	Cc1ccc(CNCCC2=CCCCC2)cc1
0.07	0.43	O=C(CCN1CCN(Cc2ccccc2)CC1)NNC(=O)Cc1ccc(Cl)c(Cl)c1
0.03	0.63	COc1cc(/C=C/C(=O)OCC(=O)c2c[nH]c3ccccc23)ccc1OC(F)F
0.07	-0.18	COc1ccc(-c2cc3ncnc(Cl)c3s2)cc1
0.29	0.11	COc1ccc(-c2nc(CSCC(=O)N3CCN(C4CCCCC4)CC3)c(C)o2)cc1OC
0.63	-1.5	COC(=O)c1c(C)oc2ccc(OC(=O)c3cccs3)cc12
0.87	-0.47	COc1cccc(N(C(=O)c2csnn2)C(C(=O)NC2CCCC2)c2ccccc2)c1 (stereo not drawn)
0.27	0.61	Cc1ccc(-c2nnc(SCC(=O)Nc3ccc4c(c3)oc3ccccc34)n2C)c(Cl)c1
1.4	1	Cc1ccc(SCC(=O)OCC(=O)Nc2ccc3[nH]c(=O)[nH]c3c2)cc1C
0.44	-1.6	COc1cc(CCCN2C(N)=NC[C@H]2Cc2ccc(O)cc2)cc(OC)c1OC
0.04	-0.02	COc1ccc(/C=C(/C#N)C(=O)Nc2ccc(O)cc2)cc1C(=O)O
0.37	0.06	CCN1C(=S)SC(=O)C1=C1C=C(C)N(Cc2ccco2)C(C)=C1
0.58	0.18	Cc1ccc(C(=O)Nc2nc(=O)n(C)s2)cc1
0.19	0.92	CCCCNC(=O)C1CCN(C(=O)Nc2ccc(C)cc2)CC1
0.9	-2.3	O=[N+]([O-])c1cccc(COc2ncnc3cc([N+](=O)[O-])ccc23)c1

The list is partial. The share of hits here may be higher or lower than overall.
